GIV Gai3 FP = GIV-Galpha-i interaction inhibition; hit rate 0.42% among 210,000; Galpha-i3/FITC-GIV peptide fluorescence polarization, 90 min; stronger effect = lower value; scaled: aluminum fluoride 0%, vehicle 100%; P08753; percent of control (FP), % (test concentration not listed);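 active = replicate mean at 85% of control or lower, very high polarization wells dropped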;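 also: wells of about 15 µL received 100 nL stock; the first replicate is given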
Target sequence (P08753 whole entry, looked up): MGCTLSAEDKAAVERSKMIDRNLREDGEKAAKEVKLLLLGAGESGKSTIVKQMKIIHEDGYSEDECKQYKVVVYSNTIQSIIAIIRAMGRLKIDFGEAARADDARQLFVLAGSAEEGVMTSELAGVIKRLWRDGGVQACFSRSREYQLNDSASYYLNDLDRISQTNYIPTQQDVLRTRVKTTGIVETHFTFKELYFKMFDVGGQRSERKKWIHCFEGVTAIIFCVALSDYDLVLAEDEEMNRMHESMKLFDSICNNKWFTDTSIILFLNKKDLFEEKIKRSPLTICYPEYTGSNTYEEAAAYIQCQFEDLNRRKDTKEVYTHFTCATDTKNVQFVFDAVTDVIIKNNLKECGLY
Numbers without * were called inactive.

Screening COc1ccc(C2=NN(C(=O)CSc3nnc(CNC(=O)c4ccccc4)n3C)C(c3ccc(OC)cc3)C2)cc1 (centres undefined) returned GIV Gai3 FP 106.
Cc1nc(-c2cccc(-c3noc(C(=O)NCc4ccccn4)n3)c2)cs1 was read as GIV Gai3 FP 109.
For c1cc(-c2noc(C3CCC3)n2)cc(N2CCOCC2)n1 the results were GIV Gai3 FP 99.
For Cc1cccc(C2(c3cccc(C)c3)CC2C(=O)Nc2c(C)cc(C)cc2C)c1 (centres undefined) the results were GIV Gai3 FP 109.
Screening COc1ccc(C(=O)NCC(=O)NCc2cscn2)cc1 returned GIV Gai3 FP 105.
Screening CCN(C(=O)CSc1nc2cc(-c3ccccc3)sc2c(=O)n1C)c1ccccc1 returned GIV Gai3 FP 103.
Screening Cc1noc(C)c1C1CCCN1C(=O)c1ccc(F)cc1 (centres undefined) returned GIV Gai3 FP 96.
Screening O=C(c1ccccc1)N1CCN(C(=O)c2nn3c(C(F)(F)F)cc(-c4ccco4)nc3c2Br)CC1 returned GIV Gai3 FP 104.
Screening O=C(NCCc1ccc(Cl)cc1)c1ccc(Oc2ccnc(-c3ccc(F)cc3)n2)cc1 returned GIV Gai3 FP 102.
COc1ccc(/C(=N/CS(=O)(=O)c2ccc(C)cc2)n2c(=S)nc(-c3ccc(OC)cc3)n(CS(=O)(=O)c3ccc(C)cc3)c2=S)cc1 was read as GIV Gai3 FP 107.
NC(=O)C1CCN(C(=O)c2ccc3c(=O)n(-c4ccccc4)c(SCC(=O)N4CCCC4)nc3c2)CC1 was read as GIV Gai3 FP 115.
`CN1CCN(C(=O)C2(c3ccc(F)cc3)CC2)CC1` gave GIV Gai3 FP 96.
O=C(NCCCN1CCCC1=O)c1ccc2ccnc(N3CCN(c4ccc(Cl)cc4)CC3)c2c1 was read as GIV Gai3 FP 108.
Screening CCN(CC)c1ccc(C2Nc3ccc4ccccc4c3C3=C2C(=O)CC(C)(C)C3)c(OCc2ccc(Cl)cc2)c1 (centres undefined) returned GIV Gai3 FP 103.
`CC1(C)C2([N+](=O)[O-])CN3CC1([N+](=O)[O-])CN(C2)C3c1cccc([N+](=O)[O-])c1` (centres undefined) gave GIV Gai3 FP 112.
`CC(=O)c1ccc(N2CCN(C(=O)c3ccc(Cn4c(=S)[nH]c5ccc(Br)cc5c4=O)cc3)CC2)cc1` gave GIV Gai3 FP 102.
Screening CCN(Cc1ccc(C(C)C)cc1)Cc1cc(=O)n2c(C)csc2n1 returned GIV Gai3 FP 103.
`O=C(CS(=O)Cc1cnn(-c2ccccc2)c1-n1cccc1)N1CCCC1` (centres undefined) gave GIV Gai3 FP 103.
Screening N#CC1=C([S-])NC(O)(c2ccccc2)C([n+]2ccccc2)C1c1ccccc1Br (centres undefined) returned GIV Gai3 FP 110.
Screening COc1ccc(NC(=O)c2c(NC(=O)c3ccccc3C)sc3c2CCCCC3)cc1 returned GIV Gai3 FP 109.
CCN(CC)CCN1C(=O)C(=O)/C(=C(\O)c2ccccc2)C1c1ccccc1 (centres undefined) was read as GIV Gai3 FP 103.
Screening CCOC(=O)c1c(NC(=O)CSc2nnc(CNC(=O)Cc3ccccc3)n2C)sc2c1CCCCC2 returned GIV Gai3 FP 105.
For O=C(Nc1ccc2c(c1)OCCO2)c1ccc(-c2nccc(Oc3ccccc3)n2)cc1 the results were GIV Gai3 FP 105.
`CCCCc1nc2ccccc2c(=O)n1NC(=O)c1c(O)c2c(n(CC(C)C)c1=O)CCCC2` gave GIV Gai3 FP 106.
`COC(=O)C1=CN(Cc2ccc(Cl)cc2)C=C(C(=O)OC)C1c1ccc(OC)c(OC)c1OC` gave GIV Gai3 FP 100.
O=C(C1CCCO1)N1CCc2cc(-c3ccno3)ccc21 (centres undefined) was read as GIV Gai3 FP 101.
Screening Cc1oc(-c2ccccc2)nc1Cn1nnc(-c2nc(-c3ccccc3Br)no2)c1C returned GIV Gai3 FP 103.
O=C(O)CCSc1ncn[nH]1 was read as GIV Gai3 FP 99.
For Cc1cc(N2CCCC2)n2nc(CN3CCCCC3C)nc2n1 (centres undefined) the results were GIV Gai3 FP 101.
Screening CC1CCCN(C(=O)CN(C)S(=O)(=O)c2ccc3c(c2)C(C)(C)C(=O)N3C)C1 (centres undefined) returned GIV Gai3 FP 104.
N#CC1=C(N)n2c(s/c(=C\c3ccc([N+](=O)[O-])cc3)c2=O)=C(C#N)C1c1ccc([N+](=O)[O-])cc1 (centres undefined) was read as GIV Gai3 FP 103.
Screening Fc1ccc(-c2csc(Cc3nc(Cc4ccc(Cl)cc4)no3)n2)cc1 returned GIV Gai3 FP 122.
For Cc1cc(N2CCCCC2)nc(N2CCN(C(=O)C(C)Oc3ccccc3)CC2)n1 (centres undefined) the results were GIV Gai3 FP 111.
Screening N#CC1=C(N)N(c2ccc(F)cc2)C2=C(C(=O)CCC2)C1c1cc(Br)cs1 (centres undefined) returned GIV Gai3 FP 131.
For O=C(CSc1nnc(-c2ccc3c(c2)OCCCO3)n1C1CC1)c1ccc2c(c1)CCCO2 the results were GIV Gai3 FP 105.
`CCOC(=O)C1=C(c2ccccc2)OC(N)=C(C#N)C1c1cccnc1` (centres undefined) gave GIV Gai3 FP 107.
`CCOC(=O)c1ccc(Nc2ncnc3c2cnn3-c2ccc(Cl)cc2)cc1` gave GIV Gai3 FP 110.
`O=C(N/C(=C\c1ccc([N+](=O)[O-])cc1)C(=O)N(CCO)CCO)c1ccco1` gave GIV Gai3 FP 106.
Screening CCC(=O)NC1=NC(=O)/C(=C/c2ccc(OCc3ccccc3F)cc2)S1 returned GIV Gai3 FP 114.
CN1C(=O)Cc2cc(S(=O)(=O)NC3CC3)ccc21 was read as GIV Gai3 FP 95.
`N#Cc1c2c(c(N3CCN(Cc4ccccc4)CC3)n3c1nc1ccccc13)CCC2` gave GIV Gai3 FP 114.
Screening COc1ccc(OC)c(-c2[nH]ncc2CN2CCCC2c2c(C)noc2C)c1 (centres undefined) returned GIV Gai3 FP 104.
Screening C(#Cc1ccc(-c2nc(-c3ccccc3)c(-c3ccc(-c4ccccc4)cc3)[nH]2)cc1)c1ccccc1 returned GIV Gai3 FP 102.
`CCC(C)(C)C1CCC2(CC1)NC(=S)N(c1ccccc1)N2` (centres undefined) gave GIV Gai3 FP 104.
CCOc1ccc(NC(=O)CSc2nc3cc(C(=O)NCc4ccco4)ccc3c(=O)n2C2CCCCC2)cc1 was read as GIV Gai3 FP 116.
For CC(C)CN1CCN(S(=O)(=O)c2ccc(-c3nnc(C4CCC4)o3)o2)CC1 the results were GIV Gai3 FP 106.
Cc1ccc(N2C(=O)C3C(C2=O)C2(C(C)C)C=CC3(C)CC2)cc1 (centres undefined) was read as GIV Gai3 FP 97.
For COC(=O)C1=NNC2C(=O)N(c3ccccc3F)C(=O)C12 (centres undefined) the results were GIV Gai3 FP 115.
`CCOC(=O)c1c(CN2CCN(c3ccccc3C)CC2)n(-c2ccccc2)c2ccc(O)cc12` gave GIV Gai3 FP 105.
O=C(Nc1ccccc1Br)/C(=C/c1cccc([N+](=O)[O-])c1)NC(=O)c1ccccc1Br was read as GIV Gai3 FP 117.
Screening Cc1ccc(C)c(N(CC(=O)Nc2c(C)n(C)n(-c3ccccc3)c2=O)S(=O)(=O)c2ccccc2)c1 returned GIV Gai3 FP 108.
For CC1CCCN(S(=O)(=O)c2ccc(-c3nnc(C4CC4)o3)o2)C1 (centres undefined) the results were GIV Gai3 FP 105.
O=C(CCc1nc2ccccc2n(CC(=O)Nc2ccc3c(c2)OCO3)c1=O)NCc1ccccc1 was read as GIV Gai3 FP 95.
`CCOc1ccc(-c2[nH]nc3c2C2(C(=O)Nc4ccccc42)C(C#N)=C(N)O3)cc1OC` (centres undefined) gave GIV Gai3 FP 104.
For COc1ccc(Cl)cc1NC(=O)CSc1nc2ccccc2n1C(C)=O the results were GIV Gai3 FP 109.
`CC1(C)CC(=O)C2=C(C1)c1c(ccc3ccccc13)NC2c1ccc(-c2ccc([N+](=O)[O-])c(Cl)c2)o1` (centres undefined) gave GIV Gai3 FP 108.
COc1ccc(CC(=O)Nc2nnc(C3CC(=O)N(c4ccc(OC)cc4)C3)o2)cc1 (centres undefined) was read as GIV Gai3 FP 97.
For CCn1cnc2sc(C(=O)N3c4ccc(F)cc4CCC3C)c(C)c2c1=O (centres undefined) the results were GIV Gai3 FP 100.
Screening O=C(NC1CCCCC1)c1nc(-c2ccc(S(=O)(=O)N3CCOCC3)cc2)no1 returned GIV Gai3 FP 100.
Screening Cc1ccc(-c2noc(-c3ccc(=O)n(CC(=O)Nc4ccccc4Br)c3)n2)cc1 returned GIV Gai3 FP 106.
Screening O=C(c1ccc(Cl)c(Cl)c1)N1CCc2c([nH]c3ccccc23)C1c1ccccc1 (centres undefined) returned GIV Gai3 FP 126.
O=C(CCc1ccccc1)N1CCCN(C(=O)Nc2ccc(S(=O)(=O)N3CCOCC3)s2)CC1 was read as GIV Gai3 FP 103.
Screening COc1ccc(NC(=O)C2CCCN(c3ncnc4c3oc3ccccc34)C2)cc1 (centres undefined) returned GIV Gai3 FP 104.
N#CC1=C(N)C(C#N)(C#N)C(c2cccc3ccccc23)C2CN(Cc3ccccc3)CC=C12 (centres undefined) was read as GIV Gai3 FP 184.
For O=C(Nc1ccc(Cl)c(Cl)c1)c1cc(S(=O)(=O)NCC2COc3ccccc3O2)ccc1F (centres undefined) the results were GIV Gai3 FP 112.
COc1ccc(C(=O)Nc2cc(C(=O)Nc3cc(Cl)ccc3C)ccc2N2CC3CC(C2)c2cccc(=O)n2C3)cc1 (centres undefined) was read as GIV Gai3 FP 121.
`CCOC(=O)C1=C(O)/C(=C/c2ccc(OCC(=O)O)c(OC)c2)SC1=Nc1ccc(OC)cc1` gave GIV Gai3 FP 125.
`COc1ccccc1CNS(=O)(=O)c1ccc(F)c(C(=O)Nc2ccc(Cl)cc2C(F)(F)F)c1` gave GIV Gai3 FP 106.
Screening CN(C)S(=O)(=O)c1cc2c(cc1N1CCSCC1)Oc1ccccc1NC2=O returned GIV Gai3 FP 105.
Screening COCCn1c(CNC(=O)c2ccncc2)nc2cccnc21 returned GIV Gai3 FP 101.
`COc1ccc(-c2[nH]nc3c2C2(C(=O)Nc4ccc(C)c(Br)c42)C(C#N)=C(N)O3)cc1OC` (centres undefined) gave GIV Gai3 FP 108.
`COC(=O)C1=C(C(=O)OC)SC(=C2C(=S)C(C)(C)N(C(=O)c3ccc(F)cc3)c3ccccc32)S1` gave GIV Gai3 FP 105.
Screening CC(C)(C)Nc1nc(NC(C)(C)C)nc(N2CCN(c3ccc4nnnn4n3)CC2)n1 returned GIV Gai3 FP 106.
Screening CCN1CCN(c2ncnc3c2cnn3-c2cc(C)cc(C)c2)CC1 returned GIV Gai3 FP 97.
Cc1nc2cc(-c3noc(-c4ccc(Cl)cc4)n3)ccc2o1 was read as GIV Gai3 FP 104.
For CCc1cc(Sc2ccc(NC(=O)c3cccc(OC)c3)cc2)n2ncnc2n1 the results were GIV Gai3 FP 101.
`C=CCN(c1ccccc1)S(=O)(=O)c1ccc2[nH]cc(C(=O)NCc3ccccc3Cl)c(=O)c2c1` gave GIV Gai3 FP 102.
For CC(=O)c1ccc2nc(-c3ccccc3)c(-c3ccccc3)nc2c1 the results were GIV Gai3 FP 108.
CCOC(=O)C1CCCN(C(=O)c2sc3ncnc(N4CCN(c5ccccc5F)CC4)c3c2C)C1 (centres undefined) was read as GIV Gai3 FP 102.
`CC(C)(C)c1cc(Cl)c(O)c(CN2CCCCC2)c1` gave GIV Gai3 FP 106.
O=[N+]([O-])c1ccc(-c2nc(NCC3CCCO3)c3ccccc3n2)cc1 (centres undefined) was read as GIV Gai3 FP 103.
CC1(C)CC(=O)C2=C(C1)OC1=C(C(=O)CC(C)(C)C1)C2c1ccc(OCC(N)=O)cc1 was read as GIV Gai3 FP 110.
For Cc1cn([C@@H]2O[C@H](CO)[C@H](O)C2O)c(=O)[nH]c1=O (some centres undefined) the results were GIV Gai3 FP 100.
COCCCNC(=O)CSc1nc2ccccc2c(=O)n1CC1CCC(C(=O)NCc2ccccc2Cl)CC1 (centres undefined) was read as GIV Gai3 FP 115.
For Cc1ccc(C)c(-n2ncc3c(N(C)C)ncnc32)c1 the results were GIV Gai3 FP 97.

Arranged by number of heavy atoms (low to high): some entries from above
O=[N+]([O-])c1ccc(-c2nc(NCC3CCCO3)c3ccccc3n2)cc1 (centres undefined) was read as GIV Gai3 FP 103.
CC1(C)CC(=O)C2=C(C1)OC1=C(C(=O)CC(C)(C)C1)C2c1ccc(OCC(N)=O)cc1 was read as GIV Gai3 FP 110.
CCOC(=O)C1CCCN(C(=O)c2sc3ncnc(N4CCN(c5ccccc5F)CC4)c3c2C)C1 (centres undefined) was read as GIV Gai3 FP 102.
COCCCNC(=O)CSc1nc2ccccc2c(=O)n1CC1CCC(C(=O)NCc2ccccc2Cl)CC1 (centres undefined) was read as GIV Gai3 FP 115.

Grouped by structure, those above containing two or more sulfur atoms
Screening CCN(C(=O)CSc1nc2cc(-c3ccccc3)sc2c(=O)n1C)c1ccccc1 returned GIV Gai3 FP 103.
COc1ccc(/C(=N/CS(=O)(=O)c2ccc(C)cc2)n2c(=S)nc(-c3ccc(OC)cc3)n(CS(=O)(=O)c3ccc(C)cc3)c2=S)cc1 was read as GIV Gai3 FP 107.
Screening CCOC(=O)c1c(NC(=O)CSc2nnc(CNC(=O)Cc3ccccc3)n2C)sc2c1CCCCC2 returned GIV Gai3 FP 105.
O=C(CCc1ccccc1)N1CCCN(C(=O)Nc2ccc(S(=O)(=O)N3CCOCC3)s2)CC1 was read as GIV Gai3 FP 103.
Screening CN(C)S(=O)(=O)c1cc2c(cc1N1CCSCC1)Oc1ccccc1NC2=O returned GIV Gai3 FP 105.
`COC(=O)C1=C(C(=O)OC)SC(=C2C(=S)C(C)(C)N(C(=O)c3ccc(F)cc3)c3ccccc32)S1` gave GIV Gai3 FP 105.

Assay outcomes: PubChem BioAssay, ICCB-Longwood Screening Facility, Harvard Medical School

This is a subset; the hit share may differ from the screen's.
